Assay outcomes from PubChem.
D2 ag – Beta-Arrestin HTS for Positive Allosteric Modulators of the Human D2 Dopamine Receptor: Agonists; DiscoveRx PathHunter D2 beta-arrestin, luminescence, 90 min; 100% = 57 uM dopamine signal; activation, % (no concentration beside the values); 360,000 compounds, 0.084% hits; in the data active = activation above about 40%; inconclusive = about 15% to 40%; inactive = below about 15%; note: compound concentration not given in the record; the text of the record calls up to 30% inactive
Target sequence (P14416 whole entry, looked up): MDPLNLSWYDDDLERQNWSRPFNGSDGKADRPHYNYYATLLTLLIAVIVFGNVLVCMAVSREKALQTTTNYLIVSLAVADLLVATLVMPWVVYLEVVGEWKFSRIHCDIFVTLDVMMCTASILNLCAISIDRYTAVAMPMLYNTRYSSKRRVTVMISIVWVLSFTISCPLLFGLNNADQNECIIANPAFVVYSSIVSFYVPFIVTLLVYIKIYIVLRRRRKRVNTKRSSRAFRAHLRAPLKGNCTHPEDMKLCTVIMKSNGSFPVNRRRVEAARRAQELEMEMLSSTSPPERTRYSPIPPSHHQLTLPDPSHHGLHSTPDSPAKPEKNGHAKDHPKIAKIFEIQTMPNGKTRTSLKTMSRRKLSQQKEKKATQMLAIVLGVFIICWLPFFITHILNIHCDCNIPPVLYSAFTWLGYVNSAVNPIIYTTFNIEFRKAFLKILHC
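Agonist mode: compounds alone added to overnight-plated D2 PathHunter cells for 90 min at 37 C, with 57 uM final dopamine (EC100) defining full response. Beta-arrestin recruitment detected by chemiluminescent reagent, read after 1 h at ambient temperature.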
TRPML1 agonist – qHTS for Agonists of the Human Mucolipin Transient Receptor Potential 1 (TRPML1); 410,000 compounds, 0.12% hits; AID 624414, 2012; activation, % (no concentration beside the values); Mucolipin-1 (Homo sapiens), Q9GZU1; TRPML1-expressing cells, Ca2+ dye fluorescence, FDSS; host cell line not named in the record; reference of the full effect not given here; in the data active = activation above about 50%; inconclusive = about 30% to 50%; inactive = below about 30%; note: 0% is about no effect; the text of the record puts the active cut at 80%
Target sequence (Q9GZU1 whole entry, looked up): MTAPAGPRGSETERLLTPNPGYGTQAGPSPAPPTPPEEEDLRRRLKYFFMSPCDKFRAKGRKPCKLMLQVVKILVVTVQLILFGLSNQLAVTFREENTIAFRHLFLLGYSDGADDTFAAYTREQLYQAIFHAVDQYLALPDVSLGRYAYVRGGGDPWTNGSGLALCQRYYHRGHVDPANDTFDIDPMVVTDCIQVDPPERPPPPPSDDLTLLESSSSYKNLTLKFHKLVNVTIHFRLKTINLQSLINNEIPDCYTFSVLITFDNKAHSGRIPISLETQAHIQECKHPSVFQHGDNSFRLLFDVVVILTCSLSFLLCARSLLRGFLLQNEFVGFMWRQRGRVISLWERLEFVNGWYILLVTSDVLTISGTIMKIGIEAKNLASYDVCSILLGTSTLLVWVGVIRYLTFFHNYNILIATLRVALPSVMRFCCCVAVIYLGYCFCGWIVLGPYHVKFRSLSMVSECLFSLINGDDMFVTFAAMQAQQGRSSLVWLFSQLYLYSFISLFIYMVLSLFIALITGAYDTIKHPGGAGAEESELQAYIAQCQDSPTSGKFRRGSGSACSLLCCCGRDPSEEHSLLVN
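Cells: TRPML1-DL, 1X Tet inducer, ~16 h at 37 degrees C/5% CO2. Dye: ABD Ca8 no-wash + quencher, 45-90 min RT. Read: 10 s baseline, compound add, 110 s agonist phase; 54-4 EC80 (4uM final), 110 s antagonist phase.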
PINK1 expr mod – A Quantitative High throughput Screen to Identify Chemical Modulators of PINK1 Expression | 410,000 compounds, 0.2% hits | PINK1 immunofluorescence, high-content cytometry, 24 h | Potency, µM (titrated, usually from 76.6 µM), without a hit: at the top dose activation (PINK1 increase), actives largely listed as activators; active = well fitted activation curve with a large enough effect; inconclusive = small, poorly fitted or top-dose-only effect; inactive = flat fitted curve, though single readings scatter; cell line not stated here;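 note: potency is the fitted concentration of half-maximal effect; % of control where 0% means no effect; nearly all actives have a fitted effect of over 65% in size; a mitochondrial uncoupler was the plate control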
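PINK1 protein level read as immunofluorescence by microplate cytometer in a fixed, stained stable cell line after 24 h exposure to five compound concentrations, with CCCP as control.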
TRPML1 blocker – qHTS for Inhibitors of the Human Mucolipin Transient Receptor Potential 1 (TRPML1) | Mucolipin-1 (Homo sapiens), Q9GZU1 | TRPML1-inducible cells, Ca2+ dye fluorescence, FDSS; active compounds read low; inhibition of EC80 agonist-evoked calcium signal | activity change, negative = inhibition, % (no concentration beside the values) | 390,000 compounds, 0.02% hits | AID 624415, 2012; in the data active means activity change below about -50%; inconclusive means about -30% to -50%; inactive means above about -30%;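 note: stimulus is agonist 54-4 at its EC80 concentration; % is set by controls: 0 for no effect and ±100 for the full control effect; compound concentration not given in the record; the text of the record puts the active cut at -80%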
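TRPML1-DL cells, Tet-induced overnight (~16 h, 37 °C) at 1,500 cells/well, were loaded with Ca8 no-wash dye plus quencher for 45-90 min at room temperature. Compounds were pinned during FDSS kinetic reading; agonist 54-4 at EC80 (4 uM final) then added.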
D2 PAM – Beta-Arrestin HTS for Positive Allosteric Modulators of the Human D2 Dopamine Receptor: Potentiators; D(2) dopamine receptor (Homo sapiens), P14416; DiscoveRx D2 beta-arrestin cells, luminescence, 90 min; 100% = 57 uM dopamine signal; potentiation, % (concentration not given with the values); 360,000 compounds, 0.23% hits; active = potentiation of 50% or more; inconclusive = 30% to 50%; inactive = 30% or less;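 note: tested on top of an EC20 dose of dopamine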
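D2 cells co-treated with compound plus 50 nM dopamine (EC20) for 90 min at 37 deg C to detect potentiation. Beta-arrestin recruitment was read as enzyme-fragment luminescence after 1 h at ambient temperature. Full response was set by 57 uM dopamine.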
Six1-Eya2 inh – qHTS Assay for Inhibitors of the Six1/Eya2 Interaction; AID 651725, 2012; activity change, % (test concentration not listed); Homeobox protein SIX1 (Homo sapiens) + Protein phosphatase EYA2 (Homo sapiens), …; AlphaScreen GST-Six1/His-Eya2 binding, biochemical; active compounds read low; control for the full effect not named in the record; 360,000 compounds, 0.56% hits; in the data active = activity change below about -65%; inconclusive = about -30% to -65%; inactive = above about -30%; note: % is set by controls: 0 for no effect and ±100 for the full control effect
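AlphaScreen luminescence read after one hour at 37 °C in darkness. Pin-transferred compounds met GST-Six1 and His-Eya2 protein (5X stock 250 nM/500 nM) plus glutathione donor and Ni-chelate acceptor beads (5X, 50 ug/mL).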
The depositor's hits bear a star; u = inconclusive; x = not tested or not shown; & = joins results of further samples; [ ] = remark or other dose.

Structure,D2 ag,TRPML1 agonist,PINK1 expr mod,TRPML1 blocker,D2 PAM,Six1-Eya2 inh
CN(c1ccc(C(=O)N2CCOCC2)cc1)S(C)(=O)=O,-1.0,0.3,7.1%[38.3 µM],25,11,2
COc1ccc(-c2cc3nc(-c4ccccc4)cc(N4CCC5(CC4)OCCO5)n3n2)cc1,-1.3,1.2,17%[38.3 µM],72,6,38
S=C(NCc1ccc(Cl)cc1)NN1CCOCC1,-2.8,-1.6,-2.4%,-2,-5,-2
CN1CCN(C(=O)CCC(=O)NCc2ccc(F)cc2)CC1,-5.2,-0.3,0.5%,-1,-15,-2
CCc1ccc(NC(=O)CN2C(=O)C(c3ccc(F)cc3)=NC2(C)C)cc1,x,1.0,0.0%,18,x,x
CCS(=O)(=O)Nc1ccc(Cc2ccc(NS(=O)(=O)CC)cc2)cc1,1.7,-0.2,0.1%[38.3 µM],8,-1,-1
COc1ccccc1NC(=O)CS(=O)(=O)c1cn(CC(=O)N2CCCC2)c2ccccc12,4.9,-0.5,0.4%,-12,-2,1
CC(C)(C)NC(=O)c1nc2nc(-c3ccccc3)cc(C(F)(F)F)n2n1,0.8,1.9,0.0%,-6,-3,-13
Cc1cccc(OCc2nnc(SCC(=O)Nc3ccc(C)c(Cl)c3)o2)c1,-2.7,0.8,u,6,-2,2
O=C(N1CCOCC1)N1CCC(n2nnc3ccccc32)CC1,-0.4,-0.5,0.2%,-6,-9,4
O=C(NCCc1ccccc1)C1CCN(Cc2cccc3ccccc23)CC1,-3.5,-1.5,-0.9%,6,-41,-15
O=S(=O)(c1ccc(Cl)cc1)N1CCCN(c2nc3ccc(Cl)cc3s2)CC1,-3.6,-0.2,5.3%,5,-9,8
O=C(COC(=O)CNC(=O)c1cccc(OC(F)F)c1)NCc1ccc2c(c1)OCO2,-1.2,-1.7,0.4%,25,7,-7
CCC1CCCCN1C(=S)NCc1ccccc1 (configuration not stated),-4.1,0.6,2.9%,17,-15,1
Cc1cccc([C@@H]2[C@@H]3C(=O)N(Cc4ccccc4)C(=O)[C@@H]3[C@]3(C)C(=O)N(c4ccc(C(F)(F)F)cc4)C(=O)N23)c1,-4.3,0.0,1.7%,-3,-13,-8
COc1ccc(-c2cc(C(F)(F)F)nc(SCC(=O)NCc3cnn(C)c3C)n2)cc1OC,2.4,0.5,0.4%,-8,-12,0
Cc1cccc(N2CCN(CC(O)COc3ccccc3Cl)CC2)c1 (configuration not stated),-5.4,-0.5,11%,-13,-53,-12
COc1ccc(-n2c(=O)c(NC(=O)c3ccccc3)c3n(c2=S)CCCCC3)cc1,-3.8,0.0,0.9%,-3,-12,-8
Cc1ccccc1-n1c(SCc2c(C)noc2C)nnc1-c1cccnc1,-0.4,1.0,1.1%,3,-25,-2
CC(OC(=O)c1ccccc1NCc1ccco1)C(=O)Nc1ncc(Cl)cc1Cl (configuration not stated),-1.3,1.7,5.3%,10,-1,13
CCc1cccc(NC(=O)CCS(=O)(=O)c2ccc(Br)cc2)c1,-1.6,1.7,1.3%,-11,-9,-24
COc1ccc(NC(=O)CCc2c(C)nn(-c3ccc(N4CCOCC4)nn3)c2C)cc1,-3.4,-0.4,-1.1%,-11,-3,3
CCc1cccc(CC)c1NC(=S)NCc1ccc2c(c1)OCO2,-3.4,2.0,0.8%,-2,-14,-7
CCOCN(C(=O)Cn1c(C(C)O)nc2ccccc21)c1c(C)cccc1CC (configuration not stated),-2.9,-0.4,-2.7%,-11,15,-2
Cc1ccc(NC(=O)CNC(=O)Cn2cnc3sc(C)c(C)c3c2=O)cc1F,-1.4,-0.2,8.0%,-2,-14,-5
CC(C)NS(=O)(=O)c1ccc(NC(=S)NC(=O)c2ccc(-c3ccccc3)cc2)cc1,-6.4,3.2,u,16,-23,-6
COc1ccccc1NC(=O)CSc1nc(SC)ns1,-0.7,0.6,3.1%,-11,-6,3
COc1ccc(CNC(=O)C(C)n2nc(C)c3c(C)n(-c4ccccc4)nc3c2=O)c(OC)c1 (configuration not stated),-4.6,-1.0&-0.3,-0.7%&-0.3%,-8&12,5,-1
CCCc1nc2ccc(C(=O)OC)cn2c1Cc1ccc(C)cc1,-6.9,1.9,2.4%,12,-20,3
CC(C)[C@H](NC(=O)C1CCN(S(=O)(=O)c2ccccc2)CC1)C(=O)NCc1ccccn1,2.2,-1.1,0.0%,-2,-1,4
O=[N+]([O-])c1ccc(S(=O)(=O)NCC(c2ccco2)N2CCc3ccccc3C2)cc1 (configuration not stated),-2.1,-0.5,0.0%,-7,-22,u
COc1cccc(OCC(=O)N2CCC3(CC2)CC(=O)c2ccccc2O3)c1,-2.5,-0.1,-1.5%,1,-5,-10
O=C(Cc1ccc(-n2c(=O)c3ccccc3n(CC(=O)Nc3ccc(F)cc3F)c2=O)cc1)NCc1ccco1,-1.3,0.6,0.5%,54,-6,-2
Cc1c(Cl)cccc1NC(=O)N1CCC(CN2CCCC2)CC1,x,1.1,0.1%,16,x,x
CC(=O)Nc1ccc(OCC(O)CN2C(C)(C)CC(O)CC2(C)C)cc1 (configuration not stated),1.8,-0.4,-1.2%,8,-6,10
Cc1ccc(-c2nc(CS(=O)(=O)CC(=O)Nc3ccc(Br)cc3F)c(C)o2)cc1,x,0.9,2.6%,-1,x,x
Cc1cc(C)c(NC(=O)COC(=O)C2CCC(=O)N2)c(C)c1 (configuration not stated),2.4,1.5,-0.3%,16,-20,0
Cc1ccc(OCC(=O)NCC2(N3CCN(C)CC3)CCCCC2)cc1C,x,1.3,-0.6%,-27,x,x
COc1cc(C)ccc1OCCCOc1ccccc1Br,-1.8,0.2,9.9%,-7,-6,29
Cc1cc(/C=C2/SC(=S)N(c3cccc(C(F)(F)F)c3)C2=O)c(C)n1-c1cccnc1,-1.7,4.5,1.8%,2,-17,u
Cc1ccc(-c2csc(NC(=O)CSc3nc(C)cc(=O)[nH]3)n2)cc1,0.5,-0.5,0.1%[38.3 µM],20,2,-9
CC(C)(C)c1nc(SCC(=O)NCc2cccs2)c2ccccc2n1,-0.8,0.6,2.2%,26,0,-5
Cc1nc2sc(C(c3cccs3)N3CCC(C(N)=O)CC3)c(O)n2n1 (configuration not stated),-4.6,-0.3,-0.1%,-7,-7,-1
O=C1Nc2ccccc2N(O)N1c1cc(-c2ccc(Cl)cc2)[nH]n1,0.3,0.8,-0.1%,-7,-1,4
CCc1ccc(NC(=O)CSc2nnc(CNC(=O)c3c(F)cccc3Cl)o2)cc1,-3.7,-0.6,-0.3%,-1,0,-2
CCC(=O)Nc1ccccc1-c1nc2ccccc2n(Cc2cccc(Br)c2)c1=O,x,2.6,0.1%,1,x,x
CSc1nnc(SCC2=NNC(=O)SC2)s1,1.3,-0.2,-1.0%,11,-7,-1
COc1ccc(S(=O)(=O)N2CCCOC2CNC(=O)C(=O)NCc2ccccc2F)cc1C (configuration not stated),-2.5,0.6,1.3%,-3,-20,4

Compound profiles (already shown):
Cc1nc2sc(C(c3cccs3)N3CCC(C(N)=O)CC3)c(O)n2n1 (configuration not stated) is listed with D2 ag: -4.6; TRPML1 agonist: -0.3; PINK1 expr mod: -0.1%; TRPML1 blocker: -7; D2 PAM: -7; Six1-Eya2 inh: -1
COc1ccc(-c2cc(C(F)(F)F)nc(SCC(=O)NCc3cnn(C)c3C)n2)cc1OC is listed with D2 ag: 2.4; TRPML1 agonist: 0.5; PINK1 expr mod: 0.4%; TRPML1 blocker: -8; D2 PAM: -12; Six1-Eya2 inh: 0

Next section
Structure,D2 ag,TRPML1 agonist,PINK1 expr mod,TRPML1 blocker,D2 PAM,Six1-Eya2 inh
CCCc1sc(N2CCCC(C(N)=O)C2)nc1-c1ccccc1 (configuration not stated),-2.2,1.2,-0.2%,-1,-12,-12
COC(=O)C(Cc1c[nH]c2ccccc12)NC(=O)CNC(C)=O (configuration not stated),2.1,-0.5,2.9%,-5,8,0
CCCCN1C(=O)C(=O)N(CC(=O)N2CCN(c3ccccc3)CC2)C1=O,-1.8,1.1,-2.5%,-10,-11,1
C=CCN1c2ccccc2[C@]23C[C@@H](C(=O)OC)N(C(C)=O)C2=NC(C(=O)OC)=C(C(=O)OC)[C@H]13,0.0,-0.1,0.7%,-14,-2,-7
CCOc1ccc(CCNC(=O)COC(=O)/C=C/c2ccc(OC(F)F)c(OC)c2)cc1OCC,-3.9,0.1,1.2%,22,-3,-9
NC(=O)c1cc(S(=O)(=O)N2CCOCC2)cs1,-1.2,0.2,0.8%,7,-5,7
Cc1ccccc1-c1nnc(-c2ccc(Br)cc2)o1,-2.5,3.0,3.2%,1,-24,27
Cc1ccc(N(CC(=O)Nc2ccc(-c3nc4ccc(C)cc4s3)cc2)S(C)(=O)=O)cc1,0.5,-0.4,2.7%,-26,-11,-3
Cc1nn(C)cc1C(=O)NNC(=S)Nc1ccc(Cl)cc1,-2.0,0.6,0.6%,14,-34,0
CCc1ccccc1NC(=O)c1cc(S(=O)(=O)N2CCC(C)CC2)cn1C,x,2.8,0.6%,-4,x,x
Cc1cc(Cl)c(S(=O)(=O)NC(C(=O)O)C(C)C)cc1OCC(=O)NC1CCCCC1 (configuration not stated),-0.4,0.4,4.1%,-7,14,-1
CCOc1ccccc1OCC(=O)Nc1ccc(S(=O)(=O)N(C)C)cc1,-1.1,0.1,1.1%,16,1,2
CN1CCCC1(C)C(=O)Nc1ccc(-n2cccc2)cc1 (configuration not stated),-1.7,-0.8,3.4%,x,-6,-23
